# Mtb growth: Mycobacterium tuberculosis H37Rv growth inhibition, putative kinase inhibitor library, confirmatory dose response (AID 2842); M. tuberculosis H37Rv growth inhibition; higher % means a stronger effect; some inactives read as strong as hits; inhibition, % at 10 µg/mL, or IC90 in µg/mL where a hit was titrated; 24,000 compounds, 5.2% hits;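 active = confirmed in a dose series; about a fifth of its hits are not listed in these tables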;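 also: bacteria incubated one week before Alamar blue readout; 0% = bacteria only wells and 100% = bacteria with high antibiotic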
# An asterisk follows results filed as active. A portion of the library. The share of hits here may be higher or lower than overall.
cpd	mol	Mtb growth
1	CCC(CC)C(=O)Nc1c(C(=O)Nc2ccccc2OC)oc2ccccc12	-3%
2	Cc1nc2n[nH]c(N)c2c(C)c1Cl	0%
3	CC(C)(C)c1ccc(C(=O)Nc2c(C(=O)Nc3ccc4c(c3)OCO4)oc3ccccc23)cc1	21%
4	COc1ccc(Cl)cc1C(=O)Nc1c(C(=O)Nc2ccccc2F)oc2ccccc12	0%
5	CC(C)n1c(SCc2ccc(Cl)cc2)nc2c1c(=O)[nH]c(=O)n2C	36%
6	COc1ccc(C(=O)Nc2nnc(C34CC5CC(CC(C5)C3)C4)s2)cc1	8%
7	CCCCNC(=O)CC1SC(N)=NC1=O (stereo unspecified)	-6%
8	Cc1ccc(CNC(=O)CN2N=NC3C(=O)N(c4cc(C)cc(C)c4)C(=O)C32)cc1 (stereo unspecified)	-10%
9	Cc1cc(Oc2ncnc(N)c2[N+](=O)[O-])cc(C(C)C)c1	-2%
10	Cc1nc(SCc2ccccc2F)n[nH]1	8%
11	CC1(C)CC(=O)C2=C(C1)OC(N)=C(C#N)C2Cc1ccccc1 (stereo unspecified)	1%
12	CCc1nc2sc(C(c3ccco3)N3CCN(C(C)=O)CC3)c(O)n2n1 (stereo unspecified)	1%

# Later entries.
cpd	mol	Mtb growth
13	Cc1ccccc1NC(=O)c1sc2ncn(CC(N)=O)c(=O)c2c1C	7%
14	O=C(Nc1nc(-c2ccc(Cl)c(Cl)c2)cs1)C1=COCCO1	-3%
15	CC(C)c1nc(C(N)=O)c2[nH]c(=O)n(-c3ccccc3)c2n1	0%
16	Cc1ccc(Cn2cc(S(=O)(=O)c3ccc(Cl)cc3)c(=O)c3cc4c(cc32)OCO4)cc1	12%
17	Nc1ncnc(NCCCO)c1[N+](=O)[O-]	-8%
18	COc1cccc(NC(=O)CSc2nnc3cc(C)c4ccccc4n23)c1	-13%
19	O=C(Cc1ccc(Cl)cc1)Nc1cccc(-c2ccc(N3CCOCC3)nn2)c1	-1%
20	O=C(CN1C(=O)c2ccccc2C1=O)Nc1nc(-c2ccccn2)cs1	42%
21	O=C(c1ccco1)N1CCN(Cc2cc(=O)c(OCc3ccc([N+](=O)[O-])cc3)co2)CC1	1%
22	CC1CC(C)CN(c2ncnc3c2cnn3-c2cccc(Cl)c2)C1 (stereo unspecified)	0%
23	O=C(Nc1nnc(-c2ccc(Cl)cc2)s1)c1ccco1	1%
24	COc1cccc(OC)c1C(=O)Nc1cccc(-c2ccc3nncn3n2)c1	-7%

# Screen by screen, quoted from above.
# Nos. 16–21 in Mtb growth, in turn: 12%, -8%, -13%, -1%, 42%, 1%

# Further structures follow.
cpd	mol	Mtb growth
25	Cc1ccccc1C(=O)Nc1c(C(=O)Nc2ccccc2)oc2ccccc12	1%
26	CSc1cccc(NC(=O)CN2N=NC3C(=O)N(c4ccc(F)c(F)c4)C(=O)C32)c1 (stereo unspecified)	-21%
27	CC(C)c1nnc(NC(=O)c2cccc(N3C(=O)c4ccccc4C3=O)c2)s1	-3%
28	COc1cccc(C(=O)Nc2c(C(=O)Nc3ccc(OC)c(OC)c3)oc3ccccc23)c1	-2%
29	Cc1ccc(-c2cc(-c3ccco3)c(C#N)c(SCC(=O)Nc3ccc(C)cc3C)n2)cc1	-10%
30	Fc1cccc2sc(Nc3nc(-c4ccccn4)cs3)nc12	<0.2µg/mL*
31	O=C(Nc1c(C(=O)Nc2ccccc2)oc2ccccc12)c1cccs1	-3%
32	CC(C)(C)NC(=O)NCc1n[nH]c(=O)c2ccccc12	-6%
33	Cc1nnc(SCc2c(Cl)ccc(Cl)c2Cl)n1N	1%
34	O=C(CCC1CCCCC1)Nc1nc2ccc(S(=O)(=O)N3CCCC3)cc2s1	5%
35	Cc1ccc(-c2nnc(NC(=O)CC34CC5CC(CC(C5)C3)C4)s2)cc1	-2%
36	COc1cccc(-c2nc(C(N)=O)c3[nH]c(=O)n(-c4ccc(C)c(C)c4)c3n2)c1OC	-11%

# The closing two records of the section above lead into the next.
cpd	mol	Mtb growth
35	Cc1ccc(-c2nnc(NC(=O)CC34CC5CC(CC(C5)C3)C4)s2)cc1	-2%
36	COc1cccc(-c2nc(C(N)=O)c3[nH]c(=O)n(-c4ccc(C)c(C)c4)c3n2)c1OC	-11%
37	Cn1c(=O)c2c(SCC(=O)Nc3ccc(Cl)cc3)ccnc2n(C)c1=O	0%
38	O=C(CSc1nc2c(c(=O)n1-c1ccc(F)cc1)SCC2)NCc1ccc(F)cc1	-6%
39	CC(=O)Nc1ccc(S(=O)(=O)Nc2cccc(-n3c(C)nc4ccccc4c3=O)c2)cc1	12%
40	O=C1CSC2=NCCCN12	-8%
41	COc1ccc(NC(=O)c2oc3ccccc3c2NC(=O)c2cc(Cl)ccc2Cl)c(OC)c1	10%
42	CC1=C(C(=O)Nc2cccc(Cl)c2)C(c2ccccc2Cl)NC(=O)N1 (stereo unspecified)	-1%
43	Cc1ccc2c(c1)c(=O)c(C(=O)c1ccccc1)cn2Cc1ccccc1F	17%
44	O=C(Nc1nc2c(s1)CCc1ccccc1-2)C1CC1	80%
45	CCN1CCN(c2ccc(N3CCN(C(=O)c4ccc(C(F)(F)F)cc4)CC3)nn2)CC1	-10%
46	COc1ccccc1-n1c(SCC(=O)Nc2nc3ccc(C)cc3s2)nc2c(c1=O)SCC2	57%
47	CCC(C(=O)Nc1cc(-c2cn3cccnc3n2)ccc1OC)c1ccccc1 (stereo unspecified)	11%
48	CN1C(=O)c2cccc(NC(=O)CCc3ccccc3)c2C1=O	-21%

# From compound 44 to 45, as listed above:
cpd	mol	Mtb growth
44	O=C(Nc1nc2c(s1)CCc1ccccc1-2)C1CC1	80%
45	CCN1CCN(c2ccc(N3CCN(C(=O)c4ccc(C(F)(F)F)cc4)CC3)nn2)CC1	-10%

# Returning to the listing, repeating the 6 entries before the break.
cpd	mol	Mtb growth
43	Cc1ccc2c(c1)c(=O)c(C(=O)c1ccccc1)cn2Cc1ccccc1F	17%
44	O=C(Nc1nc2c(s1)CCc1ccccc1-2)C1CC1	80%
45	CCN1CCN(c2ccc(N3CCN(C(=O)c4ccc(C(F)(F)F)cc4)CC3)nn2)CC1	-10%
46	COc1ccccc1-n1c(SCC(=O)Nc2nc3ccc(C)cc3s2)nc2c(c1=O)SCC2	57%
47	CCC(C(=O)Nc1cc(-c2cn3cccnc3n2)ccc1OC)c1ccccc1 (stereo unspecified)	11%
48	CN1C(=O)c2cccc(NC(=O)CCc3ccccc3)c2C1=O	-21%
49	CCC(Sc1nnc2[nH]c(=O)cc(C)n12)C(=O)OC (stereo unspecified)	7%
50	Cc1ccnc(NC(=O)CCN2C(=O)c3ccccc3S2(=O)=O)n1	-7%
51	Cc1nc2sc(C(c3cccs3)N3CCOCC3)c(O)n2n1 (stereo unspecified)	2%
52	COc1ccc(C(=O)Nc2c(N)nc(SCC(=O)Nc3nc4ccccc4s3)[nH]c2=O)cc1OC	5%
53	Cc1ccc(NC(=O)c2ccc(Nc3nc(-c4ccccc4)c4cc(Br)ccc4n3)cc2)c(C)c1	8%
54	Cc1ccc(C(=O)Nc2nnc(-c3ccc(Cl)cc3)s2)cc1	26%
55	COc1cc(/C=N/S(=O)(=O)CCc2ccccc2)ccc1O	-6%
56	Cn1c(=O)c2c(SCC(=O)Nc3ccc4c(c3)OCO4)nc(-c3ccco3)nc2n(C)c1=O	2%
57	Cn1c(=O)[nH]c(=O)c2c1nc(NCc1ccco1)n2Cc1ccccc1Cl	-1%
58	N#Cc1c(N)nc(SCC(=O)c2ccc(Br)cc2)c(C#N)c1-c1cccs1	6%
59	O=C(CCCN1C(=O)/C(=C/c2ccc3c(c2)OCO3)SC1=S)NNC(=O)c1ccccc1O	1%
60	O=C1c2ccccc2C(=O)N1CCCCNc1ccc(Cl)cc1	25%

# (continued)
cpd	mol	Mtb growth
61	COc1ccc(-c2nnc3c4ccccc4n(Cc4ccccc4OC)cc2-3)cc1	34%
62	COc1ccc(CCNc2nc3c(-c4cccc(Br)c4)nnn3c3ccccc23)cc1OC	-5%
63	CN(C)c1ccc(C2CC(c3cccc(NS(C)(=O)=O)c3)=NN2C(=O)c2cccs2)cc1 (stereo unspecified)	8%
64	COc1ccccc1-n1c(SCC(=O)Nc2ccc3c(c2)OCO3)nc2c(c1=O)SCC2	10%
65	O=C(Nc1nc(-c2ccccc2)c(-c2ccccc2)s1)c1ccc(Cl)s1	97%
66	Cc1nc(N)sc1C(=O)N/N=C\c1cc(Br)c(O)c(Br)c1O	-7%
67	Cc1ccc(Nc2nc(N3CCN(c4cccc(Cl)c4)CC3)nc3nccnc23)cc1	-3%
68	O=C(Cn1cc(C(=O)c2ccc(Cl)cc2)c(=O)c2cc3c(cc21)OCCO3)Nc1ccc(F)cc1	1%
69	O=C(O)c1cccnc1SC1CC(=O)N(c2ccc(N3CCCCC3)cc2)C1=O (stereo unspecified)	0%
70	O=C(Nc1nc(-c2ccc(Cl)cc2)cs1)c1cccc(N2C(=O)CCC2=O)c1	-5%
71	O=C(Cn1cc(S(=O)(=O)Cc2ccccc2F)c2ccccc21)Nc1ccon1	-7%
72	Cc1ccc(NS(=O)(=O)c2cc3c4c(c2)CCN4C(=O)CC3)c(C)c1	2%

# The results go on.
cpd	mol	Mtb growth
73	COC(=O)c1c(NC(=O)c2ccc(C)c(C)c2)sc2c1CCN(C(C)=O)C2	48µg/mL*
74	O=C(Nc1c(C(=O)Nc2ccc(F)c(F)c2)oc2ccccc12)c1ccccc1Br	-7%
75	COc1ccc2c(c1)c(=O)c(S(=O)(=O)c1ccc(Cl)cc1)cn2Cc1cccc(F)c1	39%
76	Cc1cccc(Cn2c(SCC(=O)OCc3ccccc3)nc3c2c(=O)[nH]c(=O)n3C)c1	8%
77	Cc1ccc2cc(CCNC(=O)c3ccc(F)cc3)c(=O)[nH]c2c1C	-7%
78	O=C(Nc1nnc(-c2ccc3c(c2)OCCO3)o1)C(c1ccccc1)c1ccccc1	93%
79	COc1ccc2cc(C(=O)Nc3nccs3)sc(=O)c2c1OC	1%
80	COc1ccc(OC)c2[nH]c(=O)c(CCN3C(=O)c4ccccc4C3=O)cc12	-7%
81	Cc1cc(C)nc(Nc2ccc(S(=O)(=O)N3CCCCCC3)cc2)n1	-16%
82	Cc1ccccc1NC(=O)CSC1=C(C#N)C(c2ccco2)C2=C(CC(C)(C)CC2=O)N1 (stereo unspecified)	14%
83	CCc1cccc(OCC(O)Cn2c(NC3CCCCC3)nc3c2c(=O)[nH]c(=O)n3C)c1 (stereo unspecified)	-17%
84	O=c1oc2ccccc2cc1-c1csc(-c2cc3cccc([N+](=O)[O-])c3oc2=O)n1	1%

# Next part.
cpd	mol	Mtb growth
85	O=C(CSc1ncnc2c1oc1ccccc12)NCCc1ccccc1	6%
86	O=C(CC1CCCCC1)Nc1c2c(nn1-c1ccc(F)cc1)CS(=O)C2 (stereo unspecified)	3%
87	Cc1ccc(NC(=O)c2cnc(SCc3cccc(F)c3)n(C)c2=O)cc1C	0%
88	COc1ccc(OC)c2[nH]c(=O)c(CCNC(=O)c3ccc([N+](=O)[O-])cc3)cc12	-4%
89	C=CCOC(=O)COc1ccc2c(-c3cc4ccccc4oc3=O)cc(=O)oc2c1	4.3µg/mL*
90	CCN(CC)S(=O)(=O)c1ccc(C(=O)Nc2nnc(C3=COCCO3)o2)cc1	-6%
91	CC1C(=O)N2CCCc3cc(NC(=O)c4ccc5c(c4)OCO5)cc1c32 (stereo unspecified)	-1%
92	N#C/C(=C\c1ccc(Cl)cc1)C(=O)Nc1cccnc1	7%
93	CCOc1ccc(NC(=O)c2cc3ccccc3oc2=O)c([N+](=O)[O-])c1	-2%
94	COC(=O)CSc1ccc2nnc(-c3ccc(OC)c(OC)c3)n2n1	-6%
95	Cc1ccc(-n2ncc3c(NNC(=O)c4ccco4)ncnc32)cc1	0%
96	CCC(Sc1nncn1C)C(=O)Nc1nnc(-c2ccccc2)s1 (stereo unspecified)	0%

# More entries:
cpd	mol	Mtb growth
97	NC(=O)c1c(NC(=O)C23CC4CC(CC(C4)C2)C3)sc2c1CCCC2	26%
98	CCOc1ccc(NC(=O)CC2SC(N)=NC2=O)c([N+](=O)[O-])c1 (stereo unspecified)	-1%
99	Cc1cc(NC(=O)CS(=O)(=O)c2cn(C)c3ccccc23)no1	1%
100	Cc1ccc(C(=O)Nc2nnc(-c3cccnc3)o2)cc1C	83%
101	N#CC1=C(N)OC2=C(C(=O)CCC2)C1Cc1ccccc1 (stereo unspecified)	-3%
102	CCOC(=O)c1nn(-c2ccc(C)cc2)c(=O)c2c(NC(=O)c3ccc(Br)cc3)scc12	13%
103	COc1cccc(C(=O)Nc2c3c(nn2-c2cccc(Cl)c2)CS(=O)C3)c1 (stereo unspecified)	7%
104	O=C(O)c1cc(-c2ccccc2O)n[nH]1	-4%
105	COc1ccc(NC(=O)CSc2nc(-c3ccc([N+](=O)[O-])cc3)nc3c2c(=O)n(C)c(=O)n3C)cc1	-12%
106	COC(=O)c1ccccc1-c1ccc(/C=C(\C#N)c2nc(-c3ccco3)cs2)o1	5%
107	O=C1c2ccccc2C(=O)N1CCSc1nnc2sc3ccccc3n12	13%
108	CCOc1ccc(C(=O)Nc2c(N)nc(SCc3ccc([N+](=O)[O-])cc3)[nH]c2=O)cc1	4%

# Additional compounds follow.
cpd	mol	Mtb growth
109	Clc1c(-c2nnc(SC/C=C/c3ccccc3)o2)sc2ccccc12	1%
110	Cc1ccc(C)c(-c2csc(NC(=O)c3ccc(S(=O)(=O)N4CCC(C)CC4)cc3)n2)c1	21%
111	COc1ccc(Nc2ncnc3nc[nH]c23)cc1OC	7%
112	Cc1cc2c(cc1C)NC(CC(=O)Nc1cccc(C(F)(F)F)c1)C(=O)N2 (stereo unspecified)	-2%
113	COc1ccc(C(=O)Nc2nnc(-c3ccccc3C)s2)c(OC)c1	11%
114	O=C(Nc1ccc2c(c1)OCCO2)c1ccc(-c2nc3ccccc3s2)s1	-1%
115	CC(=O)c1sc(NC(=O)c2ccc(C(C)(C)C)cc2)nc1C	2%
116	COc1ccc2oc(-c3csc(NC(=O)c4ccc5ncsc5c4)n3)cc2c1	-5%
117	Nc1nc(SCC(=O)Nc2nc3ccccc3s2)[nH]c(=O)c1NC(=O)c1ccc(F)cc1	1%
